Bioassay records as filed in PubChem.
HCMV UL50-53 inh – inhibitors of HCMV UL50-UL53 interaction, biochemical, HTRF. inhibition, % (test concentration not listed). AID 1918969, 2023. normalized percent inhibition. 0.15% of 190,000 active;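 active = both replicates at 50% or more, plus weaker picks with an unusually low signal ratio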;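 note: stock transfer was 100 nL into about 20 µL; 0% = negative control wells and 100% = wells with untagged competitor protein; inactives centre near -12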
GIV-Gai inh – inhibitors of GIV peptide binding to Galpha-i3, primary screen, biochemical, fluorescence polarization, FITC-GIV GBA peptide, rat Galphai3; Guanine nucleotide-binding protein G(i) subunit alpha-3 (Rattus norvegicus), P08753; 90 min; active compounds read low; scaled: aluminum fluoride 0%, vehicle 100%; percent of control (FP), % (test concentration not listed); 0.42% of 210,000 active; AID 1224905, 2016;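 active = replicate mean at 85% of control or lower, very high polarization wells dropped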;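 note: lower values mean more displacement of the GIV peptide from Galpha-i3; wells of about 15 µL received 100 nL stock; the first replicate is given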
Target sequence (P08753 whole entry, looked up): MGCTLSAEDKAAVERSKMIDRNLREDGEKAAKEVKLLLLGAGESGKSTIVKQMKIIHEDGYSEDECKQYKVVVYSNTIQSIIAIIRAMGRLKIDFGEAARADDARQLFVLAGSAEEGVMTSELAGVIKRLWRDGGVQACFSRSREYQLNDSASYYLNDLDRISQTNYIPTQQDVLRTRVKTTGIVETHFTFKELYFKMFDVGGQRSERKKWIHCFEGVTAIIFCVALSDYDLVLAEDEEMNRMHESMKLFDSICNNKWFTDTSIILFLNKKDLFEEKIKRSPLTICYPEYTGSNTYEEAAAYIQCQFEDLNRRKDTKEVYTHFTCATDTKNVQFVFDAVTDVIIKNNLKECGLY
Sa growth inh – S. aureus growth inhibition at 42 and 30 °C, primary screen, LtaS inhibitor project, RN4220, two temperatures; OD600, 20 h, 42 °C; active compounds read low; 0.53% of 170,000 active; relative growth, % (test concentration not listed);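 active = growth at 42 °C up to 50% and 20 or more points under that at 30 °C, or under 10% at both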;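 note: 300 nL library stock went into each well; scaled to the means of positive and negative controls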
Sa growth inh second temp – also measured in Sa growth inh; calls as there; relative growth, %; measured here: growth at 30 °C;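 optical density after 20 h as mean of two plates; 100% = untreated growth and lower means inhibition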
* = called active by the depositor; / = no result given; & = joins results of further samples.

no.	compound	HCMV UL50-53 inh	GIV-Gai inh	Sa growth inh	Sa growth inh second temp
1	CC1CCCN(C(=O)CCS(=O)(=O)c2cc(Br)cc3c2N(C(=O)C2CC2)CC3)C1 (configuration not stated)	/	103	103	91
2	O=C(Nc1ccccc1)c1nnn(Cc2ccccc2)c1NC(=O)C(F)(F)F	-3	/	52	30
3	COC(=O)Oc1cc2oc(=O)sc2cc1Cl	/	99	31	30
4	O=S1(=O)CC(c2ccccc2)CS(=O)(=O)C1CC1S(=O)(=O)CC(c2ccccc2)CS1(=O)=O (configuration not stated)	8	/	105	91
5	Clc1c(-c2nnc(-c3cccs3)o2)sc2ccccc12	-9	101	94	103
6	Cc1ccccc1-c1noc(CSc2ccc(-c3ccccc3)nn2)n1	28	111	/	/
7	c1ccc(CNCC2CC2)cc1	0	102	103	95
8	Fc1ccc(Cn2c3ccccc3c3nn4cnnc4nc32)cc1	-36	92	104	97
9	COc1ccccc1NC(=O)c1nn(C)c(C(F)(F)F)c1Cl	-10	107	/	/
10	O=C(Cn1cnc2onc(-c3ccc(F)cc3)c2c1=O)NC1CCN(Cc2ccccc2)CC1	-13	108	106	77
11	O=C(CSc1ncc2c(n1)-c1ccc(Cl)cc1N(Cc1ccccc1)S2(=O)=O)Nc1ccc(F)c(F)c1	/	109	107	102
12	COc1ccc(CNC(=O)CSc2ncc3c(n2)-c2ccc(Cl)cc2N(Cc2ccc(F)cc2)S3(=O)=O)cc1OC	/	113	106	102
13	Cc1[nH]nc(-c2ccc(S(=O)(=O)N3CCC(C)CC3)o2)c1C	-20	112	/	/
14	COC(=O)c1c(C)noc1-c1ccc(Cl)cc1	-6	100	104	91
15	NNC(=S)NC1CC2CCC1C2 (configuration not stated)	-36	103	80	46
16	CCOC(=O)c1cc(=O)[nH]c2ccccc12	-41	108	106	90
17	Cc1cc(C)cc(Oc2coc3c(CN4CCCCCC4)c(O)ccc3c2=O)c1	/	97	95	86
18	Cc1cccc(OCC(=O)Nc2ccccc2C(=O)N2CCOCC2)c1	8	108	97	91
19	O=C(Cc1cccc2ccccc12)NCc1cccs1	-9	104	105	102
20	CCC(=O)Nc1ccc2c(c1)nc1n2CCN(C(C)C)C1	-31	98	/	/
21	CCCC(C)NS(=O)(=O)c1ccccc1 (configuration not stated)	-17	104	90	98
22	CCOC(=O)N1CCC(NC(=O)c2cnn(-c3cccc(C)c3)c2-n2cccc2)CC1	/	98	92	86
23	O=C(NCCCN1CCN(c2ccccc2F)CC1)c1ccc2nc(CCc3ccccc3)oc2c1	/	101	97	87
24	Cc1ccc(-c2noc(CN(C(=O)NC3CCCCC3)C(C)C)n2)cc1	/	104	95	87
25	CCOC(=O)Cc1csc(SCC(=O)N2CC(=O)Nc3ccccc32)n1	16	/	103	102
26	CC1CS(=O)(=O)N(c2ccc(C(=O)NCCc3c[nH]c4ccccc34)c(Cl)c2)C1=O (configuration not stated)	-7	108	/	/
27	Cc1cccc(N2CCN(C(=O)c3cn(C)c(=O)c4c3c3ccccc3n4C)CC2)c1C	-1	100	/	/
28	O=C(NCCCN1CCOCC1)c1ccc(CS(=O)c2ccccc2)o1 (configuration not stated)	-1	100	97	95
29	O=S(=O)(Nc1cc(C(F)(F)F)cc(C(F)(F)F)c1)c1ccccn1	-1	103	89	76
30	Cc1ccc(NC(=O)C(C)Sc2nc(N)cc(N)n2)c(C)c1 (configuration not stated)	-27	103	100	82

(more compounds)
no.	compound	HCMV UL50-53 inh	GIV-Gai inh	Sa growth inh	Sa growth inh second temp
31	CCN(C(=O)CSc1nc(-c2ccc(C(C)C)cc2)no1)c1ccccc1	/	107	84	90
32	Cc1c(N=CN2CCOCC2)c(=O)n(C)c(=O)n1C	10	111	105	105
33	CCC(C)Sc1ncnc2sccc12 (configuration not stated)	-15	/	95	92
34	N#CCCn1nc(-c2ccccc2)cc1N	-6	98	91	91
35	COc1ccccc1NC(=O)CSc1nc2ccccc2c2nc(-c3ccccc3)nn12	/	100	108	84
36	CCSc1nn(CC(=O)Nc2ccc(OC)c(Cl)c2)c(N)c1S(=O)(=O)c1ccc(OC)cc1	-20	97	/	/
37	S=C(NN=C1CCCCCC1)Nc1ccccc1	-2	107	84	89
38	COc1ccc(-c2nc(CS(=O)(=O)CC(=O)NCCc3ccc(C)cc3)c(C)o2)cc1	-18	104	107	86
39	Cn1nc(-c2ccc(C(=O)N3CCCCC3)cc2)c2ccccc2c1=O	-40	103	94	97
40	Cc1noc(C)c1CSc1ncccc1C(=O)N1CCCC1c1cccs1 (configuration not stated)	-6	/	92	98
41	O=S(=O)(c1cccc2nonc12)N1CCC(n2cccc2)CC1	-83	101	93	84
42	Cc1csc(NC(=O)C(C)Oc2ccccc2)n1 (configuration not stated)	-26	/	84	90
43	CCOC(=O)C1=C(c2ccccc2)N=c2s/c(=C\c3ccco3)c(=O)n2C1c1cccc(OC)c1 (configuration not stated)	-8	106	103	102
44	O=C1CCC2(C(=O)O)c3[nH]c4ccccc4c3CCN12 (configuration not stated)	-8	/	94	90
45	COc1ccc(C2Nc3ccc(C(=O)c4ccccc4)cc3NC3=C2C(=O)CC(C)(C)C3)cc1OC (configuration not stated)	-17	98	/	/
46	COc1ccc(-c2c(C)noc2C)cc1S(=O)(=O)N1CCN(c2cccc(Cl)c2)CC1	-4	101	/	/
47	CCN(CC)C(=O)c1ccc(NS(=O)(=O)CC)cc1	-16	/	95	87
48	NC(N)=NCCn1ccc2ccccc21	/	99	104	93
49	Cc1nn(Cc2ccccc2Cl)c2sc(C(=O)NCCCn3ccnc3)cc12	-12	/	109	94
50	O=C(CSc1nc(-c2cccs2)cc(C(F)(F)F)n1)Nc1ccccc1Cl	-14	105	113	106
51	Cc1ccc(-n2ncc(C(=O)N3CCC(c4ccccc4)C3)c2C2CCN(C(=O)OC(C)(C)C)CC2)cc1 (configuration not stated)	/	100	97	91
52	CCOc1ccc2nc(SCc3c[nH]c4ccccc34)sc2c1	-2	/	99	89
53	O=S(=O)(NC(=NCCc1ccccn1)Nc1cccc(Cl)c1)c1ccccc1	-36	100	85	76
54	COc1ccc(-c2nc(C)c(CCNC(=O)c3ccc(C(F)(F)F)cc3)s2)cc1OC	/	101	112	85
55	O=C(O)c1ccccc1C(=O)NCc1ccc(N2CCCC2=O)cc1	-18	101	100	101
56	COc1cccc(NC(=O)c2ccc3c(SCC(=O)O)c4c(nc3c2)CCCC4)c1	/	104	79	82
57	O=C(Oc1ccc(Cl)cc1Cl)c1cccnc1SCCS(=O)(=O)c1ccccc1	-8	105	106	86
58	CC(C)OC(=O)Cn1c(C(=O)OC(C)C)cc2c1ccn2C	11	99	92	91
59	COc1ccc(CNC(=O)CSc2nc3ccccc3nc2Cc2ccccc2)cc1	/	99	91	88
60	O=C(NC1CCCC1)c1cc2c(s1)CS(=O)(=O)C2	/	112	99	78

Other entries
| item | mol | HCMV UL50-53 inh | GIV-Gai inh | Sa growth inh | Sa growth inh second temp |
| --- | --- | --- | --- | --- | --- |
| 61 | CN(C)S(=O)(=O)N1CCC(C(=O)O)(c2ccccc2)CC1 | 2 | 102 | 97 | 97 |
| 62 | O=C(COc1ccccc1)NS(=O)(=O)c1ccc(N=NN2CCOCC2)cc1 | -22 | 98 | 104 | 89 |
| 63 | Cc1ccc(CN)cc1F | -17 | / | 97 | 88 |
| 64 | COc1cccc(NC(=O)C2CCN(c3nc4ccccc4nc3C(F)(F)F)CC2)c1 | 1 | 101&104 | 107 | 89 |
| 65 | CC(C)NC(=O)N1CCc2sccc2C1c1ccc(Cl)cc1 (configuration not stated) | / | 106 | 98 | 97 |
| 66 | O=C(O)C1C2C=CC(C2)C1C(=O)NCC1CCCCC1 (configuration not stated) | -4 | 104 | 110 | 105 |
| 67 | CCN(CC)CC1OCc2ccccc2CO1 | -9 | 103 | 94 | 84 |
| 68 | O=C(CCCn1nc(-c2ccccc2)c2cc(Cl)ccc21)Nc1ccc(F)cc1 | / | 97 | 84 | 76 |
| 69 | Nc1c(C(=O)c2ccc(Cl)cc2)oc2ccccc12 | -4 | 98 | / | / |
| 70 | COc1ccc2[nH]cc(CCN3CC(C(=O)Nc4cc(F)cc(F)c4)CC3=O)c2c1 (configuration not stated) | -13 | 102 | / | / |

(listing goes on)
| item | mol | HCMV UL50-53 inh | GIV-Gai inh | Sa growth inh | Sa growth inh second temp |
| --- | --- | --- | --- | --- | --- |
| 71 | Cc1c2cnn(CC(=O)NC3CC3)c(=O)c2c(C)n1Cc1ccccc1 | -1 | 101 | 91 | 90 |
| 72 | C/C(=N\O)c1sc2ccccc2c1C | -27 | 107 | 61 | 37 |
| 73 | Cc1nc(-c2ccc(-c3cccs3)s2)sc1-c1ccnn1C(=O)C(C)(C)C | -21 | 96 | 88 | 91 |
| 74 | O=C(O)CSCC(=O)N1Cc2ccccc2CC1C(=O)O (configuration not stated) | -10 | / | 94 | 95 |
| 75 | COc1ccccc1N1CCN(CC(C)Nc2ccccn2)CC1 (configuration not stated) | 11 | 102 | 109 | 99 |
| 76 | Clc1ccc(SCc2nnc(-c3ccc(Cl)cc3)o2)cc1 | 5 | / | 102 | 56 |
| 77 | N#Cc1cccc(NC(=O)C2CCN(S(=O)(=O)c3ccc4[nH]c(=O)ccc4c3)CC2)c1 | / | 100 | 98 | 82 |
| 78 | Nn1c(CSc2nc3ccccc3o2)nnc1CSc1nc2ccccc2o1 | -8 | / | 93 | 65 |
| 79 | CSc1nnc(-c2cc3ccccc3cc2O)n1C | -64 | 102 | 89 | 71 |
| 80 | COC(=O)c1sccc1OCc1ccccc1 | 0 | 99 | / | / |

Whole records, looked up by structure:
Results for N#Cc1cccc(NC(=O)C2CCN(S(=O)(=O)c3ccc4[nH]c(=O)ccc4c3)CC2)c1 → HCMV UL50-53 inh: /; GIV-Gai inh: 100; Sa growth inh: 98; Sa growth inh second temp: 82
Results for COC(=O)c1sccc1OCc1ccccc1 → HCMV UL50-53 inh: 0; GIV-Gai inh: 99; Sa growth inh: /; Sa growth inh second temp: /
Results for C/C(=N\O)c1sc2ccccc2c1C → HCMV UL50-53 inh: -27; GIV-Gai inh: 107; Sa growth inh: 61; Sa growth inh second temp: 37

(more compounds)
| item | mol | HCMV UL50-53 inh | GIV-Gai inh | Sa growth inh | Sa growth inh second temp |
| --- | --- | --- | --- | --- | --- |
| 81 | CCCCNc1cc(C)nc2nc(-c3ccc(C(C)(C)C)cc3)nn12 | -17 | 104 | / | / |
| 82 | Cc1noc2c1C(c1cccc(O)c1)C1=C(CC(c3ccc(O)cc3)CC1=O)N2 (configuration not stated) | -27 | 103 | / | / |
| 83 | COC1CCC(C(=O)Nc2nc(-c3ccc4c(c3)CCN4S(C)(=O)=O)cs2)CC1 (configuration not stated) | 4 | 102 | 97 | 66 |
| 84 | CC(C)CN(c1ccccc1)S(=O)(=O)c1nnc(NC(=O)C2CCCCC2)s1 | -6 | 100 | 93 | 79 |
| 85 | CCCc1ccc(OCC(=O)NC2CCCC2)cc1 | -9 | 98 | 91 | 83 |
| 86 | CCC(c1ccccc1)c1nn2c(-c3cccnc3)nnc2s1 (configuration not stated) | -22 | 99 | 91 | 77 |
| 87 | CSC1=C(C#N)C(=O)NC(c2ccc(Cl)cc2)S1 (configuration not stated) | 26 | 92 | 91 | 85 |
| 88 | CC(=O)N1c2ccccc2C(=O)C1N1CCN(c2ccccc2)CC1 (configuration not stated) | / | 101 | 105 | 87 |
| 89 | Cc1nc2nc(CN(C(=O)CC(C)C)c3ccccc3)nn2c(C)c1Cl | -30 | 105 | / | / |
| 90 | O=C(CSc1ncc2c(n1)-c1cc(Cl)ccc1N(Cc1ccccc1F)S2(=O)=O)Nc1cccc(C(F)(F)F)c1 | / | 106 | 92 | 87 |

(list continues)
| item | mol | HCMV UL50-53 inh | GIV-Gai inh | Sa growth inh | Sa growth inh second temp |
| --- | --- | --- | --- | --- | --- |
| 91 | Cc1cc(C)n(C(=O)Cc2cn3ccsc3n2)n1 | -13 | / | 116 | 91 |
| 92 | CC1(C)CC(=O)C(=CN2CCCCC2)C(=O)C1 | 14 | 106 | 92 | 111 |
| 93 | CC(=O)N1c2ccccc2C(=O)C1N(C)c1ccc(C)cc1 (configuration not stated) | -36 | 105 | 95 | 81 |
| 94 | Cc1nn2c(-c3ccco3)ccnc2c1-c1ccc(Br)cc1 | -7 | 107 | 107 | 87 |
| 95 | Cc1ccc(CSc2ncc(Cl)c(C(=O)NCc3ccccc3)n2)cc1 | -9 | 103 | 101 | 90 |
| 96 | COc1ccc(NC(=O)c2nn(C)c3c2CS(=O)(=O)c2ccccc2-3)c(OC)c1 | 0 | 110 | / | / |

A draw from above in order of number of heavy atoms, highest first:
| item | mol | HCMV UL50-53 inh | GIV-Gai inh | Sa growth inh | Sa growth inh second temp |
| --- | --- | --- | --- | --- | --- |
| 68 | O=C(CCCn1nc(-c2ccccc2)c2cc(Cl)ccc21)Nc1ccc(F)cc1 | / | 97 | 84 | 76 |
| 94 | Cc1nn2c(-c3ccco3)ccnc2c1-c1ccc(Br)cc1 | -7 | 107 | 107 | 87 |
| 5 | Clc1c(-c2nnc(-c3cccs3)o2)sc2ccccc12 | -9 | 101 | 94 | 103 |
| 15 | NNC(=S)NC1CC2CCC1C2 (configuration not stated) | -36 | 103 | 80 | 46 |
